AID923: qHTS Assay for Allosteric/Competitive Inhibitors of Caspase-1: Spectroscopic Profiling in AFC Spectral Region; AID 923, 2007; actives 1.1% (n = 75,000); compound fluorescence, AFC spectral region (405/520 nm); almost no hit is shown here; Potency, µM (series often up to 57.5 µM), for the others: top-dose fluorescence increase, usual class: activators; active means well fitted activation curve with a large enough effect; inconclusive means small, poorly fitted or top-dose-only effect;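 further: 0% is about no effect; scaled to a free AFC standard on each plate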
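Compound autofluorescence profiled at 405 nm ex/520 nm em during kinetic caspase 1 run (50 nM enzyme, 5 uM Ac-WEHD-AFC, HEPES pH 7.5, 10 mM DTT). Titration up to 57 uM; baseline from regression intercept, normalized to AFC standard curve.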
TSHR ag: TSH receptor (human) agonism; HEK293-CNG-TSHR cells (CNG channel as cAMP sensor), membrane potential dye, cAMP; Potency, µM (top dose mostly 57.1 µM), for inactives: at the highest dose activation, usual class: activators; actives 0.48% (n = 73,000); AID 926; active = well fitted activation curve of enough size with the parental cells flat; inconclusive = any curve in the parental cells; inactive = parental cells flat and receptor cells flat or falling; further: % of control where 0% means no effect; weak receptor curves with flat parental cells got no call and are not listed
Target sequence (P16473 whole entry, looked up): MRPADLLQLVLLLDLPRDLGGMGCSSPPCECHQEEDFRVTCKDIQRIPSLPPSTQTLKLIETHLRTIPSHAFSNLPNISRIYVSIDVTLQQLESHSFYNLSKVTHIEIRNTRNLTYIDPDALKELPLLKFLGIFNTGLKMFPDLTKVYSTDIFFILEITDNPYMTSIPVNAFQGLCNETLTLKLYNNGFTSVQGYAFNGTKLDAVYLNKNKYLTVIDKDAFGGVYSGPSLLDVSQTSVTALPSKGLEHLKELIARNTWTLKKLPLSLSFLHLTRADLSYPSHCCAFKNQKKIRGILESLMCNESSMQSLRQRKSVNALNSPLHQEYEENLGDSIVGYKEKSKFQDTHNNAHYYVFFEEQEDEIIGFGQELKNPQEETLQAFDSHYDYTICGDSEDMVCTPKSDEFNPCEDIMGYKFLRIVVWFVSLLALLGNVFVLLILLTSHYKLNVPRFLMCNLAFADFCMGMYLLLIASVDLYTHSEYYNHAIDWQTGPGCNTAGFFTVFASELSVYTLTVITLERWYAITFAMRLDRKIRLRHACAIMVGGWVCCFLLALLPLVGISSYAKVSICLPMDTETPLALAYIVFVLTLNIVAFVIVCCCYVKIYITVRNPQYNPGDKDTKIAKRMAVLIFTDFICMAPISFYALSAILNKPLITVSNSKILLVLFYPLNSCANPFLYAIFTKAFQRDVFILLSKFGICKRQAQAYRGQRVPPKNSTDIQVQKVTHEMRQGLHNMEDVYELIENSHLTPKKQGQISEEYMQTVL
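HEK 293 cells stably expressing TSHR and a modified CNG channel, with CNG-only parental cells as counterscreen, were preloaded 60 min at room temperature with membrane potential dye containing 100 uM RO 20-1724. Compound exposure was 30 min, and depolarization was read as fluorescence at 590 nm.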
Numbers without * were called inactive; ? = inconclusive; · = not tested or not shown. Potency means the concentration at half of the fitted maximal effect. A portion of the library. The share of hits here may be higher or lower than overall.

The opening three records as a preview:
1) OCC1OC(n2cnc3cc(Cl)c(Cl)cc32)C(O)C1O (stereo not drawn)
  AID923: -0.1%	TSHR ag: ·

2) CNC(C)C1CC[C@H](N)[C@@H](OC2C(N)C[C@H](N)[C@@H](OC3OC[C@](C)(O)C(NC)[C@H]3O)C2O)O1 (stereo partly drawn)
  AID923: -2.2%	TSHR ag: ·

3) C[C@]12CCC3C(CC[C@]4(O)CC(O)CC[C@@]34C=O)[C@]1(O)CCC2C1=CC(=O)OC1 (stereo partly drawn)
  AID923: -1.0%	TSHR ag: ·

Main list, previewed entries included:
1) OCC1OC(n2cnc3cc(Cl)c(Cl)cc32)C(O)C1O (stereo not drawn)
  AID923: -0.1%	TSHR ag: ·

2) CNC(C)C1CC[C@H](N)[C@@H](OC2C(N)C[C@H](N)[C@@H](OC3OC[C@](C)(O)C(NC)[C@H]3O)C2O)O1 (stereo partly drawn)
  AID923: -2.2%	TSHR ag: ·

3) C[C@]12CCC3C(CC[C@]4(O)CC(O)CC[C@@]34C=O)[C@]1(O)CCC2C1=CC(=O)OC1 (stereo partly drawn)
  AID923: -1.0%	TSHR ag: ·

4) C=C1C/C(=C/C)C(=O)O[C@@H]2CCN3CC=C(COC(=O)[C@]1(C)O)[C@@H]23
  AID923: 0.5%	TSHR ag: ·

5) CC1(C)S[C@H]2[C@@H](N)C(=O)N2[C@H]1C(=O)O
  AID923: 3.5%	TSHR ag: ·

6) CC(=O)OC1CC(OC(C)=O)[C@]2(C)C(CC(OC(C)=O)[C@]3(C)C2CC[C@@]2(C)C(c4ccoc4)C[C@H]4O[C@]432)C1(C)C (stereo partly drawn)
  AID923: -2.3%	TSHR ag: ·

7) CC(C)(C)NCC(O)c1ccccc1Cl (stereo not drawn)
  AID923: -0.5%	TSHR ag: ·

8) C=C(C)C1CNC(C(=O)O)C1CC(=O)O (stereo not drawn)
  AID923: -3.2%	TSHR ag: ·

9) CC1CC[C@@]2(OC1)OC1C(O)C3C4CC[C@H]5CC(O[C@@H]6O[C@@H](CO)[C@H](OC7OC(CO)C(O)C(OC8OCC(O)C(O)[C@H]8O)[C@@H]7O[C@@H]7OC(CO)[C@H](O)[C@@H](O[C@@H]8OC(CO)C(O)C(O)C8O)C7O)C(O)C6O)C(O)C[C@]5(C)C4CC[C@]3(C)C1C2C (stereo partly drawn)
  AID923: 0.0%	TSHR ag: ·

10) CCN1C[C@@]2(COC(=O)c3ccccc3N3C(=O)CC(C)C3=O)CC[C@H](OC)[C@]34C5C[C@@H]6[C@@H](OC)C[C@@](O)(C5[C@H]6OC)[C@@](O)(C13)[C@@H](OC)C24 (stereo partly drawn)
  AID923: -0.2%	TSHR ag: ·

Three entries from above, sorted by SMILES length, smallest number first.
7) CC(C)(C)NCC(O)c1ccccc1Cl (stereo not drawn)
  AID923: -0.5%	TSHR ag: ·

10) CCN1C[C@@]2(COC(=O)c3ccccc3N3C(=O)CC(C)C3=O)CC[C@H](OC)[C@]34C5C[C@@H]6[C@@H](OC)C[C@@](O)(C5[C@H]6OC)[C@@](O)(C13)[C@@H](OC)C24 (stereo partly drawn)
  AID923: -0.2%	TSHR ag: ·

9) CC1CC[C@@]2(OC1)OC1C(O)C3C4CC[C@H]5CC(O[C@@H]6O[C@@H](CO)[C@H](OC7OC(CO)C(O)C(OC8OCC(O)C(O)[C@H]8O)[C@@H]7O[C@@H]7OC(CO)[C@H](O)[C@@H](O[C@@H]8OC(CO)C(O)C(O)C8O)C7O)C(O)C6O)C(O)C[C@]5(C)C4CC[C@]3(C)C1C2C (stereo partly drawn)
  AID923: 0.0%	TSHR ag: ·

(list continues)
11) CC[C@H]1C2CC3[C@@H]4N(C)c5ccccc5[C@]45C[C@@H](C2[C@H]5O)N3[C@@H]1O (stereo partly drawn)
  AID923: -0.5%	TSHR ag: ·

12) C[C@H]1C(=O)O[C@H]2CCN3CC=C(COC(=O)[C@](C)(O)[C@@]1(C)O)C23 (stereo partly drawn)
  AID923: -0.5%	TSHR ag: ·

13) CC1C(=O)OC2CCN3CC=C(COC(=O)[C@](C)(O)[C@]1(C)O)C23 (stereo partly drawn)
  AID923: 1.3%	TSHR ag: ·

14) CC(C)(O)C1C2OC(=O)C1[C@]1(O)CC3O[C@@]34C(=O)OC2[C@@]14C (stereo partly drawn)
  AID923: -0.4%	TSHR ag: ·

15) O=C1C=CC(=O)c2c(O)cccc21
  AID923: 17.6%	TSHR ag: ·

16) O=c1cccc2n1CC1CC2CN2CCCCC12 (stereo not drawn)
  AID923: 1.1%	TSHR ag: ·

17) CC1(C)C(O)CC(O)[C@]2(C)C1CC(O)[C@]1(C)C2CC[C@@]2(C)C(c3ccoc3)OC(=O)C3O[C@]312 (stereo partly drawn)
  AID923: 0.0%	TSHR ag: ·

18) CC1CC(Cl)CCC1C(=O)OC(C)(C)C (stereo not drawn)
  AID923: -0.3%	TSHR ag: ·

19) NC1C[C@H]1c1ccccc1 (stereo partly drawn)
  AID923: 0.6%	TSHR ag: ·

20) C[C@H]1O[C@H](O[C@H]2[C@H](O)[C@@H](O)[C@@H](O)[C@H](O)[C@@H]2O)[C@@H](N)C[C@@H]1NC(=N)C(=O)O
  AID923: -2.3%	TSHR ag: ·

21) CCC12C=CCN3CCC4(c5ccc(OC)cc5N(C)C4[C@@](O)(C(=O)OC)C1OC(C)=O)C32 (stereo partly drawn)
  AID923: 2.7%	TSHR ag: ·

22) COc1cc(C2c3cc4c(c(O)c3CC3COC(=O)C32)OCO4)cc(OC)c1OC (stereo not drawn)
  AID923: -1.9%	TSHR ag: ·

23) CCC1CN2CCC1CC2C(O)c1ccnc2ccccc12 (stereo not drawn)
  AID923: -1.1%	TSHR ag: ·

24) C[n+]1c2cc(N)ccc2cc2ccc(N)cc21
  AID923: 3.98µM*	TSHR ag: ·

25) COc1cc2c(cc1OC)[C@@H]1C(=O)c3ccc4c(c3OC1CO2)CC(C(C)C)O4 (stereo partly drawn)
  AID923: -1.7%	TSHR ag: ·

26) COC(=O)COc1cc(Cl)c(Cl)cc1Cl
  AID923: -0.8%	TSHR ag: ·

27) CC(C)N(C(=O)CCl)c1ccccc1
  AID923: -1.9%	TSHR ag: ·

28) CNC(=O)O/N=C(/C)SC
  AID923: -1.9%	TSHR ag: ·

29) c1cc2c(cc1C1OC[C@@H]3C(c4ccc5c(c4)OCO5)OCC13)OCO2 (stereo partly drawn)
  AID923: -4.9%	TSHR ag: ·

30) COc1cc2c(cc1OC)[C@]13CCN4CC5=CCOC6CC(=O)N2[C@@H]1[C@@H]6C5C[C@@H]43 (stereo partly drawn)
  AID923: -1.4%	TSHR ag: ·

In a second layout: results already given
item | SMILES | AID923 | TSHR ag
11 | CC[C@H]1C2CC3[C@@H]4N(C)c5ccccc5[C@]45C[C@@H](C2[C@H]5O)N3[C@@H]1O (stereo partly drawn) | -0.5% | ·
12 | C[C@H]1C(=O)O[C@H]2CCN3CC=C(COC(=O)[C@](C)(O)[C@@]1(C)O)C23 (stereo partly drawn) | -0.5% | ·
13 | CC1C(=O)OC2CCN3CC=C(COC(=O)[C@](C)(O)[C@]1(C)O)C23 (stereo partly drawn) | 1.3% | ·
14 | CC(C)(O)C1C2OC(=O)C1[C@]1(O)CC3O[C@@]34C(=O)OC2[C@@]14C (stereo partly drawn) | -0.4% | ·
15 | O=C1C=CC(=O)c2c(O)cccc21 | 17.6% | ·

Continued.
31) CCN1C[C@@]2(C)CC[C@@H](OC)[C@@]34C2C(O)[C@@]2(OCO[C@]25CC(OC)C2C[C@@]3(O)C5C2O)C14 (stereo partly drawn)
  AID923: -1.2%	TSHR ag: ·

32) C=CCN1CC[C@]23c4c5ccc(O)c4OC2C(=O)CC[C@]3(O)C1C5 (stereo partly drawn)
  AID923: -2.8%	TSHR ag: ·

33) O=C(O)CCC1NCC2CC1CN1CCCCC21 (stereo not drawn)
  AID923: -2.4%	TSHR ag: ·

34) COc1ccc(/C=C/c2cc(O)cc(O)c2)cc1
  AID923: -1.5%	TSHR ag: ·

35) COC1=CC2C3Cc4ccc(OC)c(O)c4[C@]2(CCN3C)CC1=O (stereo partly drawn)
  AID923: -0.8%	TSHR ag: ·

36) C=C[C@H]1CN2CCC1C[C@@H]2C(O)c1ccnc2ccccc12 (stereo partly drawn)
  AID923: 0.1%	TSHR ag: ·

37) CC1=CC(=O)C2=C(C)C[C@H](O)[C@H]3[C@H](C)C(=O)O[C@@H]3C12 (stereo partly drawn)
  AID923: -1.0%	TSHR ag: ·

38) CC([C@H](O)c1ccccc1)N(C)C (stereo partly drawn)
  AID923: -1.1%	TSHR ag: ·

39) C#CC1(O)CCC2C3CCC4=CC(=O)CCC4(C)C3CCC21C (stereo not drawn)
  AID923: 0.6%	TSHR ag: ·

40) Oc1cc(Cl)c(Cl)cc1Cl
  AID923: -2.1%	TSHR ag: ·

Laid out differently: 2 of the compounds above
No. | smiles | AID923 | TSHR ag
39 | C#CC1(O)CCC2C3CCC4=CC(=O)CCC4(C)C3CCC21C (stereo not drawn) | 0.6% | ·
40 | Oc1cc(Cl)c(Cl)cc1Cl | -2.1% | ·

Next section.
41) CSc1nc(NC(C)C)nc(NC(C)C)n1
  AID923: 0.0%	TSHR ag: ·

42) COC1C(O)C(OC2CC[C@]3(C=O)C4C(OC(C)=O)C[C@@]5(C)C(C6=CC(=O)OC6)CC[C@]5(O)C4CC[C@]3(O)C2)OC(C)C1OC(C)=O (stereo partly drawn)
  AID923: -1.1%	TSHR ag: ·

43) CC(=O)OC1C2C(OC(=O)Cc3ccccc3)C(C)CC2(OC(C)=O)C(=O)/C(C)=C/C2C(CC[C@@]13CO3)C2(C)C (stereo partly drawn)
  AID923: -1.8%	TSHR ag: ·

44) CCCCN(CC)c1c([N+](=O)[O-])cc(C(F)(F)F)cc1[N+](=O)[O-]
  AID923: -0.9%	TSHR ag: ·

45) Nc1ncn[nH]1
  AID923: -1.7%	TSHR ag: ·

46) COc1cc2c(cc1OC)-c1c(OC)c(OC)c(CO)c3c1C(C2)N(C)CC3 (stereo not drawn)
  AID923: 3.2%	TSHR ag: ·

47) CNNC
  AID923: -1.2%	TSHR ag: ·

48) COC(=O)[C@@H]1C[C@@H]1[C@@H](NP(=O)(c1ccccc1)c1ccccc1)c1ccccc1
  AID923: ·	TSHR ag: ?

Screening results as filed in PubChem BioAssay.
